Screens deposited in PubChem BioAssay by Vanderbilt University.
GIRK2 act – opens human GIRK2 potassium channels; P48051; calls only for hits at 25 µM; HEK293-GIRK2 thallium flux, Thallos fluorescence; 0.05% of 63,000 active;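 active = among the strongest 0.2% of first-round signals and kept after retests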;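 note: first round at about 10 µM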
Target sequence (P48051 whole entry, looked up): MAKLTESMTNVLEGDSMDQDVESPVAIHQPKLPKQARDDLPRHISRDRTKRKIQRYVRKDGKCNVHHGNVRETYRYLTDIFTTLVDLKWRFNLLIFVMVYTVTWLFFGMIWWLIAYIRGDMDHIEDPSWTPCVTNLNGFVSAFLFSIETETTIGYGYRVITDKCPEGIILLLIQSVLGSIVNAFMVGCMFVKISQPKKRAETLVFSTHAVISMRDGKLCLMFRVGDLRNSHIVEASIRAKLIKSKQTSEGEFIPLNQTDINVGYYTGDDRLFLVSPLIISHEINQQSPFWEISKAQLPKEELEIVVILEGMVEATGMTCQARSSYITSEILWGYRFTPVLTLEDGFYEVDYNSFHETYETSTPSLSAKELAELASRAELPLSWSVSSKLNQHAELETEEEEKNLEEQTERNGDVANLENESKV
Calls only; i = inactive.

SMILES	GIRK2 act
O=C(c1ccc2ccccc2n1)N1CCCC(c2nnc(-c3ccccc3F)s2)C1 (centres undefined)	i
COc1ccc(-c2coc3c4c(ccc3c2=O)OCN(Cc2ccc(F)cc2)C4)cc1OC	i
Cc1cc(CNC(=O)NC23CC4CC(CC(C4)C2)C3)c(C)o1	i
CCOc1ccc(C(=O)Nc2ccc3c(c2)CCC(=O)N3CC(C)C)cc1	i
COc1ccccc1C(O)Cn1cc(C(=O)N2CCN(C(=O)c3ccco3)CC2)nn1 (centres undefined)	i
Cc1c(C(N)=S)nnn1-c1cccc(F)c1	i
O=S(=O)(Nc1cnc(N2CCOCC2)nc1)c1cccs1	i
CC(=O)N1CCN(C(=O)C(NC(=O)c2ccco2)S(=O)(=O)c2ccc(Cl)cc2)CC1 (centres undefined)	i
CC(=O)c1cccc(NC(=O)CNC(=O)c2c[nH]c3ccccc23)c1	i
O=S(=O)(/C=C/c1ccccc1)N1CCCC(c2nnc(C(F)(F)F)o2)C1 (centres undefined)	i
CC(C)(C)C1CCc2nc(SCC(N)=O)c(C#N)c(C(F)(F)F)c2C1 (centres undefined)	i
Cc1cc(NCCCN2CCOCC2)n2nc(C)c(-c3ccc(Cl)cc3)c2n1	i
Cc1ccc(C)c(C(=O)Nc2cnc(-n3nc(C)cc3C)nc2)c1	i
COc1ccc(C2C(=C(O)c3ccc(Cl)cc3)C(=O)C(=O)N2c2cc(C)on2)cc1 (centres undefined)	i
Cc1ccnc(Nc2cc(N3CCN(C(=O)CNC(=O)c4ccccc4)CC3)nc(C)n2)c1	i
COc1cc(Cl)cc2c1OCC(=O)N(c1cccc(C#N)c1)C2	i
CSc1ccc(CC(=O)N(CC2CCCO2)c2nc3c(Cl)cccc3s2)cc1 (centres undefined)	i
COc1cc(Cl)ccc1S(=O)(=O)N1CCN(S(=O)(=O)c2ccc(Cl)cc2OC)CC1	i
O=C(Cn1c(=O)n(CC2CCCO2)c(=O)c2sc3ncccc3c21)Nc1ccccc1Cl (centres undefined)	i
COc1ccc(C(=O)NCCn2ncccc2=O)cc1OC	i
Cc1nnc(NC(=O)c2ccc3c(c2)ncn3-c2ccccc2)s1	i
Cc1cc(C)c(NC(=O)Cn2nc3c4cc(-c5ccc(F)cc5)nn4ccn3c2=O)c(C)c1	i
O=C(Cn1cccc(S(=O)(=O)N2CCCC2)c1=O)c1ccccc1Cl	i
Cc1ccc(-n2ncc3c(=O)[nH]c(-n4nc(C)cc4NC(=O)c4ccco4)nc32)cc1	i
COC(=O)c1ccc(S(=O)(=O)NCC2CCN(C(=O)Oc3ccccc3)CC2)cc1	i
Cc1ccc2[nH]c3c(=O)n(CCC(=O)NCC(C)c4ccccc4)cnc3c2c1 (centres undefined)	i
COc1ccc(NC(=O)CSc2ccc(-c3nc(C)no3)cn2)cc1Cl	i
CC(=O)N1CCN(c2cc(Nc3ccccn3)ncn2)CC1	i
O=C(CCc1ccccc1)Nc1cnc(-n2cccn2)nc1	i
CCOc1ccccc1NC(=O)Nc1ccc2c(c1)CCCN2C(=O)c1cccs1	i
CSCC(C)(O)CNC(=O)c1ccccc1F (centres undefined)	i
Cc1nc(-c2ccccc2F)sc1CNC(=O)C(C)Oc1ccccc1Cl (centres undefined)	i
Cn1cc(C2=C(c3c(S(C)=O)n(C)c4ccccc34)C(=O)NC2=O)c2ccccc21 (centres undefined)	i
COc1ccc(-c2coc3cc(OC(=O)/C=C/c4ccccc4)ccc3c2=O)cc1OC	i
O=C(CCSc1ccccc1)NCCc1nc(C2CC2)cc(C(F)(F)F)n1	i
COc1cccc(Cn2nnc3c(=O)n(Cc4nc(-c5ccc(F)cc5)no4)cnc32)c1	i
COCCNc1nc2ccccc2nc1NS(=O)(=O)c1ccc(C)cc1C	i
COc1ccc(-c2coc3c4c(ccc3c2=O)OCN(CCc2ccccc2OC)C4)cc1	i
CCOC(=O)C1CCCN(C(=O)c2cc(-c3cccs3)nn2C)C1 (centres undefined)	i
COc1cccc(CNC(=O)c2nnn(-c3ccc(SC)cc3)c2-c2ccccn2)c1	i
Cc1cc(N2CCN(C(=O)c3ccc(S(=O)(=O)N4CCOCC4)cc3)CC2)ncn1	i
COc1ccc(CCNC(=O)C(=O)NCCC2CCCCN2S(=O)(=O)c2ccc(F)cc2)cc1 (centres undefined)	i
Cn1nnn(-c2ccc(NC(=O)Nc3cccc(C(F)(F)F)c3)cc2)c1=O	i
CCn1c(-n2nc(C)cc2C)nc2c1c(=O)n(CCN1CCOCC1)c(=O)n2C	i
CCc1ccc(S(=O)(=O)NCC2CCN(C(=O)c3ccoc3)CC2)s1	i
O=C(c1ccccc1)N1CCN(Cc2nc(C3CC3)cs2)CC1	i
COc1ccc(Cl)cc1NC(=O)Cn1c(=O)n(Cc2nc(C)no2)c(=O)c2ccccc21	i
Cc1ccc(Cl)cc1NC(=O)c1cc(-c2ccc3c(c2)OCCO3)on1	i
Cc1ccc(N2CCN(C(=O)Nc3ccccc3)CC2)nn1	i
COc1ccc(-n2ccnc(NC(=O)Nc3cccc(C)c3)c2=O)cc1Cl	i
Cn1nc(-c2ccc(F)cc2)cc1C(=O)NCCC(O)c1ccc2c(c1)OCO2 (centres undefined)	i
COc1ccc(N2C(=O)C3N=NN(CC(=O)Nc4ccc(OC)c(OC)c4)C3C2=O)cc1 (centres undefined)	i
Cc1cc(NC(=O)c2ccc(Cl)cc2Cl)n(-c2nc(-c3cccs3)cs2)n1	i
Cc1ccc(C)c(NC(=O)Cn2c(C)cc(C)c(-c3nc(-c4ccc(F)cc4)no3)c2=O)c1	i
CCOC(=O)C1CCN(CCOc2ccc3c(c2)O/C(=C\c2ccc(OC)cc2)C3=O)CC1	i
CCC(C(=O)N1CCC(Oc2cnccn2)CC1)c1ccccc1 (centres undefined)	i
Cc1ccc(-n2nnnc2CN2CCN(C(=O)c3cc(Cl)ccc3Cl)CC2)cc1	i
Cc1ccc(S(=O)(=O)c2cnc(N3CCC(C)CC3)nc2N)cc1	i
O=C(/C=C/CCc1ccc(O)cc1)CCc1ccc(O)cc1	i
Cc1nc(-c2ccccc2Cl)sc1CNC(=O)Cn1nnc2ccccc21	i

Brought forward from above: 2 entries, then new ones.
SMILES	GIRK2 act
O=C(/C=C/CCc1ccc(O)cc1)CCc1ccc(O)cc1	i
Cc1nc(-c2ccccc2Cl)sc1CNC(=O)Cn1nnc2ccccc21	i
CCOc1ccccc1NC(=O)N1CCN(c2cc(Nc3ccccn3)nc(C)n2)CC1	i
COc1ccc(-c2csc3c(=O)n(CC(=O)NCc4ccccc4Br)cnc23)cc1	i
COc1cc(NC(=O)N2CCCC(c3nnc(-c4cccs4)o3)C2)cc(OC)c1OC (centres undefined)	i
CC(=O)c1cccc(NC(=O)CSc2cc(-n3nc(C)cc3C)ncn2)c1	i
Cn1nnnc1SCC(=O)N1CCN(c2cc(-c3ccccc3)ncn2)CC1	i
NNC(=O)c1ccncc1	i
CC1CCN(C(=O)CN2CC(c3nc(C4CC4)no3)C2)CC1	i
CCC(=O)N1CCN(C(=O)C(NC(=O)c2cccc(Cl)c2)S(=O)(=O)c2ccccc2)CC1 (centres undefined)	i
CCc1nccn1CC1CCN(C(=O)c2ccc(=O)n(-c3ccccc3)n2)CC1	i
COc1ccc(S(=O)(=O)Nc2nc(CC(=O)Nc3ccccc3C(N)=O)cs2)cc1	i
CC(=O)c1sc2nc(SC/C=C/c3ccccc3)[nH]c(=O)c2c1C	i
CC(Nc1ncc2c(=O)n(Cc3ccccc3)c(=O)[nH]c2n1)c1cccnc1 (centres undefined)	i
COc1cccc(N(C)S(=O)(=O)c2ccsc2C(=O)n2nc(C)cc2C)c1	i
Cc1cc(=O)[nH]c(-n2nc(-c3cccs3)cc2NC(=O)C2CC(=O)N(c3ccc(Cl)cc3)C2)n1 (centres undefined)	i
CSc1cccc(NC(=O)COc2cc(C)nc(-c3ccc(C)cc3)n2)c1	i
C=CC(C)(C)c1[nH]c2cc3c(cc2c1CC1NC(=O)C2=CCCN2C1=O)C=CC(C)(C)O3 (centres undefined)	i
COc1ccc(OCC(=O)Nc2ccc3c(=O)c4cccc(Cl)c4oc3c2)cc1	i
O=C(c1ccccc1F)N1CC(Oc2nc3c(C(F)(F)F)cccc3s2)C1	i
Cc1ccc(S(=O)(=O)NCC2CCN(C(=O)c3ccncc3)CC2)c(C)c1	i
CCn1c(SCC(=O)N2CCCCCC2)nc2c([nH]c3ccccc32)c1=O	i
CC(=O)c1ccc(NC(=O)CCn2c(=O)oc3ccc(Cl)cc32)cc1	i
CC1=C(C(=O)Nc2ccc(Br)cc2)C(c2ccc([N+](=O)[O-])cc2)NC(=O)N1 (centres undefined)	i
COc1ccc(C2CCN(C(=O)c3cnc4ccccc4n3)C2)cc1 (centres undefined)	i
CCOc1ccc(Nc2cc(C(=O)OC)nc3ccccc23)cc1	i
Cn1nnn(-c2ccc(NC(=O)c3cc(-c4ccccc4)on3)cc2)c1=O	i
COc1ccc(CNC(=O)c2nnn(-c3ccc(OC)cc3)n2)cc1	i
OC(COc1ccc(-c2ccccc2)cc1)CSc1ccccn1 (centres undefined)	i
Cc1ccc2oc(=O)cc(CSc3nc(C)cc(C)c3C#N)c2c1	i
Cc1ccc2ncc(C#N)c(N3CCC(C(=O)Nc4ccc(C(C)C)cc4)CC3)c2c1	i
O=C(Nc1ccc(-c2cnc3n2CCC3)cc1)Nc1cccs1	i
CC(C)(C)c1ccc(NC(=O)N2CCOC3(CCOCC3)C2)cc1	i
Cn1nc(C(=O)Nc2cccc3nsnc23)ccc1=O	i
Cc1ccc(C)c(S(=O)(=O)NCc2ccc(C(=O)NCc3ccco3)cc2)c1	i
COc1ccc(CCNC(=O)C(=O)Nc2c3c(nn2C(C)(C)C)CSC3)cc1	i
COCCN1CCC(NC(=O)C2CCN(S(C)(=O)=O)CC2)CC1	i
COc1ccc(S(=O)(=O)NCCNc2cc(-n3cccc3)ncn2)c(C)c1C	i
O=C(Nc1nnc(C2CC(=O)N(c3ccccc3)C2)o1)c1ccc2c(c1)OCO2 (centres undefined)	i
CC(O)CNc1nc2c([nH]1)c(=O)[nH]c(=O)n2C (centres undefined)	i
Cc1nnc(C2CCCN(C(=O)c3cnn(-c4ccccc4)n3)C2)s1 (centres undefined)	i
CS(=O)(=O)c1ccc2nc(N(Cc3cccnc3)C(=O)c3ccc4c(c3)OCCO4)sc2c1	i
CCc1cccc(C)c1NC(=O)Cn1cc(S(=O)(=O)N2CCCCCC2)ccc1=O	i
O=C(NCc1ccco1)c1ccc(Nc2nn3c(=O)c4ccccc4nc3s2)cc1	i
COCCn1c(SCc2nc(-c3ccccc3C)no2)nc2ccsc2c1=O	i
Cc1cc(OCC(=O)Nc2ccc(Br)cc2C)nc(-c2ccc(F)cc2)n1	i
CN(C)C(CNC(=O)C(=O)NCc1ccc(F)cc1)c1ccc2c(c1)CCO2 (centres undefined)	i
O=C(Nc1nc2c(s1)C(=O)CCC2)c1cccc(-n2ccc3ccccc32)c1	i
COc1ccc(C)cc1S(=O)(=O)N1CCCC(c2nn(C)c(=O)n2-c2ccccc2)C1 (centres undefined)	i
CNC(=O)c1cccc(-c2noc(C3CN(S(=O)(=O)/C=C/c4ccc(C)cc4)C3)n2)c1	i
CCC(CC)C(=O)Nc1cc(C)nn1-c1nc(-c2ccc(OC)cc2)cs1	i
O=C(NCc1ccc(F)cc1)c1cc(=O)c(OCc2ccccc2)c[nH]1	i
CCc1ccc(NC(=O)Cn2c(N3CCOCC3)nc(CC)cc2=O)cc1	i
COc1cc(/C=C2\Oc3c(ccc4c3CN(Cc3ccco3)CO4)C2=O)cc(OC)c1OC	i
COc1cccc(NC(=O)CSc2nnc(-c3ccncc3)o2)c1	i
COc1cc(C(=O)Nc2ccc3c(c2)N(C(=O)C2CC2)CCC3)cc(OC)c1OC	i
O=C(CSC1CCCC1)NCC1CCN(c2ncccn2)CC1	i
O=C(Nc1ccc(F)c(F)c1)c1c(O)c2cccnc2n(-c2ccccc2)c1=O	i
COc1ccc2[nH]c3c(c(=O)c2c1)CN(CC(=O)NCc1ccc2c(c1)OCO2)CC3	i
CCOc1ccc(C(O)=C2C(=O)C(=O)N(c3cc(C)on3)C2c2ccc(OC)cc2)cc1 (centres undefined)	i
CC(C)C(=O)Nc1ccc(S(=O)(=O)NCC2(c3ccccc3)CCOCC2)cc1	i
CCOc1ccc(CN2CC(c3nc(-c4cnccn4)no3)C2)cc1OC	i
CN(C)C(CNC(=O)C(=O)Nc1ccccc1Cl)c1cn(C)c2ccccc12 (centres undefined)	i
CNC(=O)/C(C#N)=C1\SC(CCO)C(=O)N1c1ccccc1 (centres undefined)	i

In the list so far, 14 have an aryl thioether with sulfur outside any ring:
SMILES	GIRK2 act
CC(C)(C)C1CCc2nc(SCC(N)=O)c(C#N)c(C(F)(F)F)c2C1 (centres undefined)	i
CSc1ccc(CC(=O)N(CC2CCCO2)c2nc3c(Cl)cccc3s2)cc1 (centres undefined)	i
COc1ccc(NC(=O)CSc2ccc(-c3nc(C)no3)cn2)cc1Cl	i
O=C(CCSc1ccccc1)NCCc1nc(C2CC2)cc(C(F)(F)F)n1	i
COc1cccc(CNC(=O)c2nnn(-c3ccc(SC)cc3)c2-c2ccccn2)c1	i
CC(=O)c1cccc(NC(=O)CSc2cc(-n3nc(C)cc3C)ncn2)c1	i
Cn1nnnc1SCC(=O)N1CCN(c2cc(-c3ccccc3)ncn2)CC1	i
CC(=O)c1sc2nc(SC/C=C/c3ccccc3)[nH]c(=O)c2c1C	i
CSc1cccc(NC(=O)COc2cc(C)nc(-c3ccc(C)cc3)n2)c1	i
CCn1c(SCC(=O)N2CCCCCC2)nc2c([nH]c3ccccc32)c1=O	i
OC(COc1ccc(-c2ccccc2)cc1)CSc1ccccn1 (centres undefined)	i
Cc1ccc2oc(=O)cc(CSc3nc(C)cc(C)c3C#N)c2c1	i
COCCn1c(SCc2nc(-c3ccccc3C)no2)nc2ccsc2c1=O	i
COc1cccc(NC(=O)CSc2nnc(-c3ccncc3)o2)c1	i

An excerpt. The share of hits here may be higher or lower than overall.
